Biofilm kill mix: mixtures killing C. albicans biofilm; C. albicans biofilm persisters + clotrimazole, fluorescence viability; primary screen in compound mixtures of four per well; inhibition, % at 7.6 µM; 120,000 compounds, 0.02% hits;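 active means inhibition above 30.3% in the primary screen of four-compound pools, then above 30% when the compound was retested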;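 further: compounds exposed to preformed 24 h biofilms for 48 h; the number belongs to the whole pool; some results filed as inactive read as strong as hits; inactives centre near 12; 0% = biofilm with clotrimazole alone and 100% = kill control; retested singly at about 60 µM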
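Incubation: 24 h biofilm formation, then 48 h compound exposure, 37 °C | Material: C. albicans biofilms | Buffer or medium: RPMI/MOPS medium, pH 7.0 | Measured by: 2-h Alamar Blue fluorescence, 535/590 nm excitation/emission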
* hit, by the source's call.

CCCCCCN(C(=O)CCCCCN1C(=O)NC(c2ccc(-c3ccccc3)cc2)C(C(=O)OCc2ccccc2)=C1C)C(C(=O)NCCCC)C1CCCCC1 (stereo not given) was read as Biofilm kill mix 19.
`COc1ccc(CSc2nnc(C)n2N)cc1[N+](=O)[O-]` gave Biofilm kill mix 6.
Cn1cc(CN2CCCC(C(=O)c3cc(F)ccc3F)C2)c2ccccc21 (stereo not given) was read as Biofilm kill mix 37.
For CN(C(=O)COC(=O)c1ccc([N+](=O)[O-])cc1Cl)C1CCCCC1 the results were Biofilm kill mix 11.
Screening CCOCCCN(C(=O)Cn1nnc(-c2ccc(OC)c(OC)c2)n1)C(CC)C(=O)NC1CCCC1 (stereo not given) returned Biofilm kill mix 19.
`CC(C)(CO)NC(=O)C12CC3CC(CC(Br)(C3)C1)C2` gave Biofilm kill mix 32.
For C=CC(C)N1C(=O)S/C(=C\c2ccc(N3CCOCC3)cc2C)C1=O (stereo not given) the results were Biofilm kill mix 3.
`CCN1C(c2ccccc2)=C(c2ccccc2)S/C1=C/C=C1\SC(=S)N(C)C1=O` gave Biofilm kill mix 8.
For CCOc1ccc(-c2nc(-c3cccs3)c(CC(=O)O)s2)cc1OC the results were Biofilm kill mix 9.
`CC(=O)c1cn(CC(=O)Nc2ccc(C)c(C)c2)c2ccccc12` gave Biofilm kill mix 9.
`CCOC(=O)NC(=O)/C(C#N)=N\Nc1cccc(OC)c1` gave Biofilm kill mix 4.
CCC(C(=O)Nc1ccc(C)cc1)c1ccccc1 (stereo not given) was read as Biofilm kill mix 19.
`O=C(C1CCCO1)N1CCN(C(=S)Nc2ccc(F)cc2)CC1` (stereo not given) gave Biofilm kill mix 13.
`CN(C)c1ccc(C(=O)N2CCCC2)cc1` gave Biofilm kill mix 10.
`CCOc1ccc2nc(Cl)c(C3CC(c4ccco4)=NN3S(C)(=O)=O)cc2c1` (stereo not given) gave Biofilm kill mix 9.
`COc1ccc(CC(=O)NCc2csc(-c3cccs3)n2)cc1OC` gave Biofilm kill mix 10.
COc1ccc(/C=C/c2nnc(NC(=O)C(C)(C)C)s2)cc1 was read as Biofilm kill mix 16.
Screening COc1ccc(C2C=C(Nc3ccccc3)C(=O)N2c2ccccc2)cc1OC (stereo not given) returned Biofilm kill mix 22.
`O=C(COc1ccc(S(=O)(=O)N2CCOCC2)cc1)N1CCCCCC1` gave Biofilm kill mix 10.
Screening C=C(C(=O)O)C1CCC2(C)CCCC(C)(O)C2C1 (stereo not given) returned Biofilm kill mix 20.
Screening Cc1cccc(Cn2ccc(NC(=O)c3cccnc3)n2)c1 returned Biofilm kill mix -4.
[O-]/C(=C(\C(=S)Nc1cccc2ccccc12)[n+]1ccccc1)c1cccs1 was read as Biofilm kill mix 10.
For Cc1nc(-c2ccccc2)sc1C1(C)CC(c2c(Cl)cccc2Cl)=NO1 (stereo not given) the results were Biofilm kill mix 17.
`O=C(Nc1ccc(S(=O)(=O)N2CCCC2)cc1)c1cnccn1` gave Biofilm kill mix 22.
For CN(C)c1ccc(NC(=O)C(=O)C2C(=O)Nc3ccccc32)cc1 (stereo not given) the results were Biofilm kill mix 24.
O=C(NC1=NCCS1)c1ccc(Cl)c(S(=O)(=O)N2CCc3ccccc32)c1 was read as Biofilm kill mix 10.
CC(C)C(=O)NC(=S)Nc1ccccc1N1CCN(C(=O)c2ccccc2)CC1 was read as Biofilm kill mix 9.
Screening Cc1cc(N/N=C/c2ccccc2O)nc(-c2ccccc2O)n1 returned Biofilm kill mix 9.
`Cc1cc(Br)c(NC(=O)c2c(-c3c(Cl)cccc3Cl)noc2C)c(Br)c1` gave Biofilm kill mix 18.
For COc1ccc(C(=O)Nc2ccccn2)cc1 the results were Biofilm kill mix 13.
For O=C(O)Cc1c(C(=O)O)[nH]c2ccc(C(=O)O)cc12 the results were Biofilm kill mix 25.
`CCOc1ccc(C(=O)N/N=C/c2c(C)[nH]c(=O)[nH]c2=O)cc1` gave Biofilm kill mix 26.
`Cc1c(C(=O)Oc2cc(N)n(S(C)(=O)=O)n2)cccc1[N+](=O)[O-]` gave Biofilm kill mix 1.
COCCCNc1nc2ccccc2nc1NS(=O)(=O)c1ccc(C)c(C)c1 was read as Biofilm kill mix 27.
C[C@@](Cc1ccc(O)c(O)c1)(NN)C(=O)O was read as Biofilm kill mix 14.
`COC(=O)c1sccc1NC(=O)Cc1ccc(Br)cc1` gave Biofilm kill mix 18.
For CN1/C(=C\C=C2/SC(=S)NC2=O)C(C)(C)c2ccccc21 the results were Biofilm kill mix 22.
For Cc1c(NC(=O)Cc2cccs2)cccc1[N+](=O)[O-] the results were Biofilm kill mix 22.
`O/N=C\c1ccccc1Oc1ccc(F)cc1` gave Biofilm kill mix 11.
CC(C)Oc1c(N2CCOCC2)c(=O)c1=O was read as Biofilm kill mix 13.
Cc1cccc(C)c1OCC(=O)N/N=C/C=C/c1ccco1 was read as Biofilm kill mix 10.
Screening O=C(Cc1ccc(Br)cc1)Nc1ccc(Cl)cc1 returned Biofilm kill mix 13.
For Cn1c(=O)[nH]c(=O)c2c1nc(N1CCCC1)n2CCCSc1nnnn1-c1ccccc1 the results were Biofilm kill mix 13.
Screening CN(C)c1ccc(/C=C/C(=O)c2ccccc2O)cc1 returned Biofilm kill mix 21.
`Cc1ccc(N(Cc2ccc([N+](=O)[O-])cc2)C(=O)c2ccco2)cc1C` gave Biofilm kill mix -3.
O=C(N/N=C/c1cc([N+](=O)[O-])ccc1O)c1ccncc1 was read as Biofilm kill mix 18.
For COc1ccccc1C(=O)Oc1ccc2c(c1)O/C(=C\c1ccncc1)C2=O the results were Biofilm kill mix 7.
`O=C(Nc1cc(F)cc(F)c1)c1ccc(NCCc2ccccc2)c([N+](=O)[O-])c1` gave Biofilm kill mix 14.
`Cc1ccc(N(CC(=O)NN=C2CCN(C)CC2)S(=O)(=O)c2ccccc2)c(C)c1` gave Biofilm kill mix 13.
CCOC(=O)c1[nH]c2c(c1-c1ccc(OC)cc1)C(=O)CC(c1ccc(OC)c(OC)c1)C2 (stereo not given) was read as Biofilm kill mix 12.
Screening COC(=O)c1ccc2nc(NC(=O)C(C)C)sc2c1 returned Biofilm kill mix 16.
Screening COCCCn1c(SCC(=O)Nc2ccc(C)cc2)nc2ccccc2c1=O returned Biofilm kill mix 0.
C[C@@H]1CC=C[C@H]2[C@H]1C(=O)N(Cc1ccccc1)[C@H]2c1ccc(-c2ccc(N(C)C)cc2)cc1F was read as Biofilm kill mix 17.
Screening COCCNC(=O)CCCn1c(=O)c2cc(OC)c(OC)cc2n(CC(=O)Nc2ccc(F)cc2)c1=O returned Biofilm kill mix 9.
Cc1ccc(CC(NC(=O)c2ccccc2)C(=O)NC(CC(C)C)C(=O)O)cc1 (stereo not given) was read as Biofilm kill mix 10.
CCN(CC)S(=O)(=O)c1cccc(NC(=O)COC(=O)CCC(=O)c2cccs2)c1 was read as Biofilm kill mix 6.
Screening O=[N+]([O-])c1ccc(SCCc2ccccn2)cc1 returned Biofilm kill mix 16.
For CC(NC(=O)c1ccc(C23CC4CC(CC(C4)C2)C3)cc1)C(=O)O (stereo not given) the results were Biofilm kill mix 7.
`CC1CCCN(C(C(=O)NC2CCCCC2)c2cc3c(cc2[N+](=O)[O-])OCO3)C1` (stereo not given) gave Biofilm kill mix 12.
Screening Cc1ccc(NC(=O)C2CCCN2C(=O)Oc2ccccc2)c(C)c1 (stereo not given) returned Biofilm kill mix 23.

A section taken from the entries so far, as a working copy:
CCCCCCN(C(=O)CCCCCN1C(=O)NC(c2ccc(-c3ccccc3)cc2)C(C(=O)OCc2ccccc2)=C1C)C(C(=O)NCCCC)C1CCCCC1 (stereo not given) was read as Biofilm kill mix 19.
`COc1ccc(CSc2nnc(C)n2N)cc1[N+](=O)[O-]` gave Biofilm kill mix 6.

(further entries)
Cc1ccnn1Cc1cc(C(=O)O)c2ccccc2n1 was read as Biofilm kill mix 19.
CCN1CC(c2ccccc2)C(c2ccc(Cl)cc2)=N1 (stereo not given) was read as Biofilm kill mix 7.
Cc1ccc2c(c1)C1C3CCC(C3)C1S(=O)N2 (stereo not given) was read as Biofilm kill mix 1.
`Cc1ccc(-n2cc(CN3CCC(CO)(Cc4ccccc4)CC3)cn2)cc1` gave Biofilm kill mix 7.
`O=C1CC(=O)CC(c2ccccc2)C1` gave Biofilm kill mix 7.
Screening Cn1c(=O)n(C)c2cc(NS(=O)(=O)c3ccc(C(C)(C)C)cc3)ccc21 returned Biofilm kill mix 7.
For O=C(CSc1nc(C2CCCCC2)nc2ccccc12)NCc1ccco1 the results were Biofilm kill mix 7.
Screening CCCCOc1ccc(N2C(=O)CC(NCc3ccncc3)C2=O)cc1 (stereo not given) returned Biofilm kill mix 12.
For O=C(c1ccc(Cl)c(Cl)c1)N1CCC(=O)N(C(COCc2cccc(C(F)(F)F)c2)Cc2ccccc2)CC1 (stereo not given) the results were Biofilm kill mix 6.
`CSc1ccccc1C(=O)C1CCCN(C(=O)CCc2cccnc2)C1` (stereo not given) gave Biofilm kill mix 17.

Structural class, the compounds so far containing a Cl atom (8)
For CN(C(=O)COC(=O)c1ccc([N+](=O)[O-])cc1Cl)C1CCCCC1 the results were Biofilm kill mix 11.
`CCOc1ccc2nc(Cl)c(C3CC(c4ccco4)=NN3S(C)(=O)=O)cc2c1` (stereo not given) gave Biofilm kill mix 9.
For Cc1nc(-c2ccccc2)sc1C1(C)CC(c2c(Cl)cccc2Cl)=NO1 (stereo not given) the results were Biofilm kill mix 17.
O=C(NC1=NCCS1)c1ccc(Cl)c(S(=O)(=O)N2CCc3ccccc32)c1 was read as Biofilm kill mix 10.
`Cc1cc(Br)c(NC(=O)c2c(-c3c(Cl)cccc3Cl)noc2C)c(Br)c1` gave Biofilm kill mix 18.
Screening O=C(Cc1ccc(Br)cc1)Nc1ccc(Cl)cc1 returned Biofilm kill mix 13.
CCN1CC(c2ccccc2)C(c2ccc(Cl)cc2)=N1 (stereo not given) was read as Biofilm kill mix 7.
For O=C(c1ccc(Cl)c(Cl)c1)N1CCC(=O)N(C(COCc2cccc(C(F)(F)F)c2)Cc2ccccc2)CC1 (stereo not given) the results were Biofilm kill mix 6.

The listing continues:
Screening COC(=O)c1ccccc1NC(=O)CSc1nncn1C returned Biofilm kill mix -4.
For COc1ccc(C2=NCCn3cccc32)c(OC)c1 the results were Biofilm kill mix 12.
`CCOC(=O)c1c(-c2ccc(OC)cc2)csc1/N=C/C1=C(O)CCCC1=O` gave Biofilm kill mix -8.
`CCc1nnc(NC(=O)c2ccc(Cl)nc2)s1` gave Biofilm kill mix 18.
For CCOc1cc2[nH]c(=S)n(CCC(=O)NCc3ccco3)c(=O)c2cc1OCC the results were Biofilm kill mix 21.
Screening Cc1ccc(NS(=O)(=O)c2ccc(C3CCCCC3)cc2)cc1 returned Biofilm kill mix 12.
`O=C1NC2(CCCCCCC2)C(=O)N1Cc1ccc(F)cc1` gave Biofilm kill mix 16.
`COc1ccc(CCNC(=O)CCCCCn2c(SCC(N)=O)nc3cc4c(cc3c2=O)OCO4)cc1OC` gave Biofilm kill mix 17.
`C/C(=N\Nc1ccc(Cl)c(C(=O)O)c1)c1cccs1` gave Biofilm kill mix 18.
For S=C1NNC2(NN1)C1CC3CC(C1)CC2C3 the results were Biofilm kill mix 10.
C/C(=N\O)C(C)(C)Nc1ccc(Cl)cc1 was read as Biofilm kill mix 21.
COc1cc(/C=N/NC(=O)Cc2nnc(N)s2)cc(OC)c1OC was read as Biofilm kill mix 15.
For Cc1cc(=O)c2ccccc2n1CC(=O)NCc1ccccc1 the results were Biofilm kill mix 15.
For Cc1ccc(C2=NNC(=Nc3ccc(F)cc3)SC2)cc1 the results were Biofilm kill mix -5.
Screening O=C(CN1C(=O)CCC1=O)Nc1cccc(NC(=O)CN2C(=O)CCC2=O)c1 returned Biofilm kill mix 18.
`S=C(NC1CCCCC1)N(CCc1ccccc1)CCc1ccccc1` gave Biofilm kill mix 22.
For OCc1cc(-c2ccc(Cl)c(Cl)c2)on1 the results were Biofilm kill mix 7.
Screening COc1cc2c(cc1NC(=O)c1cc(-c3ccccn3)nc3ccccc13)oc1ccccc12 returned Biofilm kill mix 12.
For C[C@H](NC(=O)c1[nH]cnc1C(=O)Nc1ccc(CNC(=O)OC(C)(C)C)cc1)C(=O)OC(C)(C)C the results were Biofilm kill mix 7.
For COc1ccc(C(=O)CSc2n[nH]c(=O)n2Cc2ccco2)cc1 the results were Biofilm kill mix 8.
`CC(C)=CCN1CCN(Cc2nc(-c3ccccc3)cs2)CC1CCO` (stereo not given) gave Biofilm kill mix 14.
For CC(=O)Nc1ccc(NC(=O)COc2cccc3c2OC(C)(C)C3)cc1 the results were Biofilm kill mix -4.
Cc1ccc(S(=O)CCNC(=O)Cc2ccc(Cl)cc2)cc1 (stereo not given) was read as Biofilm kill mix 16.
`O=C(CCCc1nc2ccccc2s1)Nc1ccccc1` gave Biofilm kill mix 24.
Screening CN1/C(=C\C(=O)C[n+]2ccc(C(=O)c3ccccc3)cc2)C(C)(C)c2ccccc21 returned Biofilm kill mix -6.
For N#Cc1sc2nc3c(cc2c1N)CCCC3 the results were Biofilm kill mix 6.
COc1ccccc1C(=O)NNC(=O)c1cccc(F)c1 was read as Biofilm kill mix 22.
Screening CCOc1ccc(N(CC(=O)NCCc2ccc(OC)cc2)S(C)(=O)=O)cc1 returned Biofilm kill mix 14.
`CCc1nn2cc(C(=O)c3ccccc3O)cnc2c1-c1ccc(F)cc1` gave Biofilm kill mix 8.
`CCC(OC(=O)C1=Cc2ccccc2OC1)C(=O)NCc1ccco1` (stereo not given) gave Biofilm kill mix 18.
COc1ccc(N/C=C/c2nc(SC)nnc2C)cc1 was read as Biofilm kill mix 11.
For CCO/N=C(/C)c1c(O)c(C)c(-c2ccccc2)n(-c2ccccc2)c1=O the results were Biofilm kill mix 8.
COc1cc2[nH]c(C(=O)NN)c(N)c2cc1OC was read as Biofilm kill mix 13.

High-throughput results (PubChem)

This is a subset, so the mix of outcomes need not match the whole.
